Marburg entry inh = blocks Marburg virus binding to or entry into cells; Marburg virus pseudotyped entry inhibition, cell reporter; control for the full effect not named in the record; about a third of the inactives were read at about 46 µM; Potency, µM (doses to about 37.8 µM), inactives show at the highest dose activity change, negative = inhibition, most hits filed as inhibitors; hit rate 1.8% among 300,000; active = well fitted inhibition curve with a large enough effect; inconclusive = small, poorly fitted or top-dose-only effect, or effect the other way; inactive = flat fitted curve, though single readings scatter; tested in HEK293 cells; about a fifth of its hits are not listed in these tables; note: % is set by controls: 0 for no effect and ±100 for the full control effect; luciferase read-out
2A StopGo = FMDV 2A StopGo reporter, luciferase signal | human cells with a luciferase reporter of 2A StopGo recoding; control for the full effect not named in the record | Potency, µM (highest dose often 57.9 µM), without a hit: top-dose signal change, negative = less light | hit rate 1.2% among 410,000 | AID 1159524; active = well fitted falling curve with a large enough effect; inconclusive = small, poorly fitted or top-dose-only effect; inactive = no such curve, though single readings can be large or run the other way; tested in HEK293T cells; note: % is set by controls: 0 for no effect and ±100 for the full control effect; nearly all actives have a fitted effect of over 45% in size; luciferase light after 4 h
Cruzain inh noDet = cruzain (T. cruzi) inhibition without detergent. P25779. purified cruzain, Z-FR-AMC fluorescence, no detergent. Potency, µM, for the others: max response, negative = inhibition, actives largely listed as inhibitors. hit rate 2.3% among 200,000; active = well fitted curve in the direction sought with a large enough effect; inconclusive = small, poorly fitted or top-dose-only effect, or another doubt; inactive = no such curve, though single readings can be large; an effect the other way counts as inactive or inconclusive;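 note: plate controls were enzyme without inhibitor for no effect and buffer without enzyme for full effect; nearly all actives have a fitted effect of over 40% in size; top concentration of the series not given in the record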
Target sequence (P25779 123-467 limits assumed): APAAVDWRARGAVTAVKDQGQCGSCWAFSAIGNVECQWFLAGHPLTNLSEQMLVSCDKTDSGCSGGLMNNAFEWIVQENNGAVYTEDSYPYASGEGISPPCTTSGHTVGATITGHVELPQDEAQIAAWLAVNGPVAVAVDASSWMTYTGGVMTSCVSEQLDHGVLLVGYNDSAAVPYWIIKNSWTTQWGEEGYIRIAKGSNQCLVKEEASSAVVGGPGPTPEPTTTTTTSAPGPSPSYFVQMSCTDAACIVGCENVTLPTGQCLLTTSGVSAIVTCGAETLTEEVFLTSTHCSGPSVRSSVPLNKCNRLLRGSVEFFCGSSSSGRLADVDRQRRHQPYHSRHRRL
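Detergent-free condition (0.00005% Triton X-100) in acetate buffer pH 5.5 with DTT. 1.5 nM enzyme and compound were pre-mixed 15 min, then 2 uM Z-FR-AMC substrate added; reaction progress from fluorescence change between first and third reads (60 s).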
NS1 function inh = inhibitors of influenza NS1 protein function | S. cerevisiae slowed by influenza A NS1, growth recovery by OD600 | Potency, µM (doses to about 46.1 µM), inactives show top-dose activity, positive = more growth | hit rate 0.4% among 270,000; note: actives are rising curves; nearly all actives have a fitted effect of over 50% in size
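In this qHTS, NS1 from influenza A is expressed in budding yeast, where it slows growth. Cells are switched from glucose to 2% galactose medium (pH 6.0, -URA), treated with compound, and growth recovery is read at OD600.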
SARS PLP yeast = inhibitors of SARS-CoV papain-like protease in yeast; S. cerevisiae expressing SARS-CoV PLpro, growth rescue; control for the full effect not named in the record; Potency, µM (titrated, usually from 32.9 µM), for inactives: at the highest dose activity, positive = growth rescue; hit rate 0.19% among 330,000; AID 485353; note: 0% is about no effect; nearly all actives have a fitted effect of over 55% in size; growth read by luminescence after 48 h
RE007 growth inh = less growth of the S. pombe RE007 Vpr strain | S. pombe RE007 Vpr strain, BacTiter-Glo ATP luminescence, 24 h; control for the full effect not named in the record | Potency, µM (doses to about 92.2 µM), for the others: at the highest dose activity change, negative = less growth | hit rate 0.21% among 360,000; active = well fitted falling curve with a large enough effect; inconclusive = small, poorly fitted or top-dose-only effect; inactive = no such curve, though single readings can be large or run the other way;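 note: % is set by controls: 0 for no effect and ±100 for the full control effect; nearly all actives have a fitted effect of over 50% in size; the assay follows cell death caused by Vpr and the record does not say whether a fall means rescue or toxicity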
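Fission yeast strain RE007, carrying one chromosomally integrated HIV-1 vpr copy, was seeded at OD 0.01 in PMG+AL medium with 23 nL pinned compound. After 24 h at 30 °C and 99% humidity, viability was read by BacTiter-Glo luminescence.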
LASV entry inh = blocks Lassa virus binding to or entry into cells | Potency, µM (highest dose often 37.9 µM), inactives show at the top dose activity change, negative = inhibition, usual class: inhibitors | hit rate 1.2% among 300,000 | Lassa virus pseudotype entry inhibition, cell reporter; control for the full effect not named in the record | AID 540256; active means well fitted inhibition curve with a large enough effect; inconclusive means small, poorly fitted or top-dose-only effect, or effect the other way; inactive means flat fitted curve, though single readings scatter; tested in HEK293 cells; note: % is set by controls: 0 for no effect and ±100 for the full control effect; nearly all actives have a fitted effect of over 50% in size; luciferase read-out
Cruzain inh Det = inhibitors of Trypanosoma cruzi cruzain with detergent. AID 1478. hit rate 0.43% among 200,000. P25779. purified cruzain, Z-FR-AMC fluorescence, 0.01% Triton. Potency, µM, for inactives: max response, negative = inhibition, actives largely listed as inhibitors; active = well fitted curve in the direction sought with a large enough effect; inconclusive = small, poorly fitted or top-dose-only effect, or another doubt; inactive = no such curve, though single readings can be large; an effect the other way counts as inactive or inconclusive;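 note: plate controls were neutral wells for no effect and buffer without enzyme for full effect; nearly all actives have a fitted effect of over 40% in size; top concentration of the series not given in the record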
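Cysteine protease activity tested under reducing, mildly acidic conditions (100 mM sodium acetate pH 5.5, 5 mM DTT) plus 0.01% Triton X-100. Cruzain 1.5 nM; substrate Z-FR-AMC 2 uM; 15 min compound preincubation at room temperature.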
* hit, by the source's call; ? = inconclusive; / = not tested or not shown; & = joins results of further samples; [ ] = remark or other dose. Unless noted, calls come from the whole dose curve; as a rule, active means well fitted rising curve with a large enough effect; inconclusive means small, poorly fitted or top-dose-only effect; inactive means no such curve, though single readings can be large or run the other way. Potency is the fitted concentration of half-maximal effect.

SMILES,Marburg entry inh,2A StopGo,Cruzain inh noDet,NS1 function inh,SARS PLP yeast,RE007 growth inh,LASV entry inh,Cruzain inh Det
O=C(O)CC/C(=N/Nc1ccc([N+](=O)[O-])cc1)C(=O)O,/,-15%,/,-72%,-4%,13%,/,/
CCOc1cc2[nH]c(=O)n(CCCC(=O)N(C)Cc3ccccc3)c(=O)c2cc1OCC,2%[46.1 µM],-20%,/,/,1%,0%,/,/
CC(C)NC(=O)CN1CCC(O)(c2ccccc2)CC1,12%,/,0%,1%,0%,-6%,1%,7.3%
CSc1ccc(CCNC(=O)C2CCCN(c3ncnc4c3nc3n4CCCCC3)C2)cc1 (stereo not drawn),?,?,/,4%,?,-3%,?,/
COc1ccc(S(=O)(=O)N2CCN(CCc3ccccc3)CC2)cc1,4%[46.1 µM],?,/,-4%,-5%,4%,-2%[46.1 µM],/
Cc1cccc(CCNC(=O)c2cc(S(=O)(=O)N3CCCC3)cn2C)c1,/,4%,/,16%,0%,-9%,/,/
c1ccc(Cn2cc(CN3CCCO3)c(-c3ccc4c(c3)OCO4)n2)cc1,/,16%,/,-4%,-2%,2%,/,/
CC(C)(C)c1ccc(S(=O)(=O)N2CCN(CCC#N)CC2)cc1,/,-18%,5%,-8%,-3%,-12%,/,5.4%
CC(=O)N1CCc2cc(S(=O)(=O)N3CCCCCC3)ccc21,-14%[46.1 µM],-4%,/,-6%,-6%,-8%,-1%[46.1 µM],/
COc1ccc(COC(=O)C2CCN(S(=O)(=O)c3ccc(Cl)cc3)CC2)cc1,-7%[46.1 µM],-10%,/,/,-3%,-6%,0%,/
O=C(CCSCCC(=O)NN=Cc1cccc(Cl)c1)NN=Cc1cccc(Cl)c1,-12%,0%,/,/,/,16%,-10%,/
CCCCN(C)CC(O)Cn1cc(/C=C/C(=O)c2ccc(C)cc2)c2ccccc21 (stereo not drawn),?,?,?,0%,-2%,/,?,-11%
Cc1ccnc(SCC(=O)c2ccc([N+](=O)[O-])cc2)n1,?,-19%,-2%,11%,-22%,-4%,14%,0.7%
CN(C)CCNC(=O)C(C(=O)c1ccc(F)cc1)n1ccccc1=O (stereo not drawn),0%,-1%,0%,-1%,-1%,3%,6%,2.8%
CCOC(=O)c1[nH]c(C)c(C(=O)c2cc(F)ccc2F)c1C,?,10%,-18%,-8%,-4%,-1%,-16%,-6.4%
CN(C)c1ccc(/C=C(\C#N)c2nc(-c3ccc(Cl)c(Cl)c3)cs2)cc1,/,-6%,3%,/,/,/,1%[46.1 µM],-2.2%
COC(=O)c1c(NC(=O)CCCOc2ccccc2C)sc2c1CCC(C)C2 (stereo not drawn),/,-26%,-7%,/,/,/,-2%[46.1 µM],-1.1%
CCOc1cc2c(cc1OC)C(c1cccc([N+](=O)[O-])c1)NCC2 (stereo not drawn),-4%,10%,/,0%,0%,6%,-1%,/
Nc1ccc(-c2nc3ncccc3o2)cc1,/,58%[activator],/,-29%,3%,-10%,/,/
O=C(NCC(c1ccco1)N1CCN(c2ccc(F)cc2)CC1)OCc1ccccc1 (stereo not drawn),?,-30%,1%,-24%,-9%,4%,1.3µM*,-4.1%
COc1ccc(NC(=O)NNC(=O)c2ccc(-c3ccccc3)cc2)cc1,-20%[46.1 µM],13%,/,10%,9%,6%,1%[46.1 µM],/
CC(C)C(NS(=O)(=O)c1cccc2nsnc12)C(=O)NCCC1=CCCCC1 (stereo not drawn),/,-16%,0%,-2%,-1%,-13%,/,-5.4%
CCn1cc(C(=O)N2CCN(c3cc(C)ccc3C)CC2)c(=O)c2cc(S(=O)(=O)N(C)C3CCCCC3)ccc21,14%[46.1 µM],-12%,?,/,/,/,-17%[46.1 µM],-3.9%
CC(C)c1ccc(S(=O)(=O)N2CCC3(CC2)OCCO3)cc1,-29%,-22%,/,-18%,1%,38%,?,/
O=C(O)CCC(=O)N1CN2CN(C(=O)CCC(=O)O)CC([N+](=O)[O-])(C2)C1,4%[46.1 µM],-4%,/,2%,0%,-8%,19%,/
CC(=O)C1=C(O)CC(c2ccccc2)CC1=NCCc1ccccc1 (stereo not drawn),-25%[46.1 µM],-25%,/,-7%,2%,-11%,6%,/
COC(=O)[C@@H]1C[C@@]2(O)[C@H](O)[C@H](O)[C@H](O)C[C@H]2N1C/C=C/c1ccccc1,/,4%,-2%,2%,1%,9%,/,-1.3%
CCCCOC(=O)c1ccc(NC(=O)c2cnccn2)cc1,-1%[46.1 µM],31%[activator],7%,-10%,-5%,-18%,3%,0.5%
O=C(Cn1cncn1)c1ccc(F)cc1F,-4%,-5%,7%,-3%,-8%,1%,12%,-2.4%
Cn1c(CNC(=O)c2ccco2)nnc1SCC(=O)N1CCN(c2ccccc2F)CC1,-12%[46.1 µM],-2%,/,23%,2%,-7%,23%[46.1 µM],/
COc1ccccc1CNC(=O)COC(=O)c1cccc(S(=O)(=O)N2CCCC2)c1,3%,-13%,/,11%,2%,1%,-16%,/
O=C(c1ccco1)N(Cc1ccc(Cl)cc1)C1CCS(=O)(=O)C1 (stereo not drawn),/,-17%,/,-1%,-3%,3%,/,/
O=C(O)C1C2CC3C(OC(=O)C31)C2Cl (stereo not drawn),?,-11%,5%,-1%,-18%,7%,3%,-1.1%
CC(=O)N1CCN(S(=O)(=O)c2cccc(C(=O)OCc3ccc(C(C)(C)C)cc3)c2)CC1,-21%,?,/,/,-1%,-2%,?,/
CCOC(=O)c1c(C)[nH]c(N=Nc2ccccc2C)c1C,?,/,30%,-32%,-34%,-23%,?,-11%
Cc1cc(C)cc(NS(=O)(=O)c2cc3c(cc2C)NC(=O)CO3)c1,/,131%[activator],7%,/,/,/,-3%[46.1 µM],-11%
Cc1ccc(-c2nc(N)c3c(-c4ccc(C)cc4)nn(C(C)(C)C)c3n2)cc1,-22%,-7%,?,3%,3%,-4%,5%,0.7%
COc1ccc(Nc2ncnc3ccccc23)cc1,6%,29%,-5%,-1%,4%,7%,17%,0.7%
Cc1noc(C)c1C(=O)Nc1nccs1,1%[46.1 µM],21%,/,5%,19%,0%,17%[46.1 µM],/
CCc1nc2c(cnn2-c2ccc(Cl)cc2)c(=O)n1-c1ccc2c(c1)OCCO2,4%,?,9%,-37%,0%,3%,27%,-6.7%
CCOc1ccc(C(=O)Oc2cc(C)[nH]c(=O)c2[N+](=O)[O-])cc1,/,-18%,/,-31%,3%,-3%,/,/
Cc1ccc(-c2csc3ncnc(Sc4nnc(CN5CCCCCC5=O)o4)c23)cc1,?,14µM*,30%,-31%,-9%,-3%,?,-9.0%
COc1ccc(CCCc2nnc(SCC(=O)Nc3ccc(C)c(C)c3)o2)cc1,27%[46.1 µM],?,12%&21%,1%,-4%,7%,-19%[46.1 µM],-7.5%&-1.0%
CC1=C(C(=O)OCC2CCCCC2)C(c2cccc(Cl)c2Cl)CC(=O)N1 (stereo not drawn),10%[46.1 µM],-6%,7%,/,/,/,3%[46.1 µM],-1.7%
Cc1nc(NC(=O)CSc2nnnn2C)sc1C,17%,55%[activator],-1%,1%,2%,6%,12%,-4.6%
Cc1ccc(C(C)C)c(OCC(O)CN2CC(C)OC(C)C2)c1 (stereo not drawn),?,0%,8%,-8%,3%,-9%,-24%,3.9%
CCOC(=O)c1ccc(NC(=O)N2CCN(c3cccc(OC)c3)CC2)cc1,8%[46.1 µM],?,/,3%,0%,-16%,/,/
O=C(CN1CCN(c2ccccc2F)CC1)NCc1ccccc1,14%,6%,/,-7%,4%,-3%,?,/
Cc1cc(OCC(=O)Nc2c(C)n(C)n(-c3ccccc3)c2=O)ccc1[N+](=O)[O-],-11%[46.1 µM],10%,/,9%,-4%,0%,9%[46.1 µM],/
COc1cc(/C=C/C(=O)N2CC(C)OC(C)C2)cc(OC)c1OC (stereo not drawn),0%,-3%,/,2%,4%,7%,22%,/
Cc1ccc(OCC(=O)OCC(=O)c2ccccc2)cc1C,/,8%,/,-2%,-1%,0%,/,/
Cc1cccc(-n2cnc(C(=O)N/N=C\c3ccc(Br)cc3)c2)n1,?,-24%,-5%,0%,4%,10%,21%,6.3%
COC(=O)c1cccc(NC(=O)Nc2cc(C(=O)NCc3cccc(F)c3)ccc2N2CCCC2)c1,/,33%[activator],?,/,/,/,?,-3.5%
CCC1=C(OC(=O)N(CC)CC)N2C(=O)OC(=NCCc3c[nH]c4ccccc34)[C@]2(C)[C@H]2C1=CC[C@H]1C(=O)NC(=O)[C@H]12,/,0%,?,-10%,2%,2%,/,-5.4%
Cc1nc2cc(NC(=O)CS(=O)(=O)c3ccccc3)ccc2s1,3%,112%[activator],/,/,-2%,-18%,-4%,/
CC1(C)Cc2c(sc(NC(=O)c3ccco3)c2C#N)CO1,7%,25%,-3%,-47%,-23%,-27%,10%,-2.2%
O=C(COC(=O)c1ccccc1SCC(=O)NC1CCCCC1)NC1CCCCC1,?,6%,29%,5%,0%,18%,30%,-0.8%
CC1CCN(c2ccccc2N)CC1,17%,-24%,-1%,1%,3%,1%[3.69 µM],1%,3.3%
CCOc1ccc(CNCc2c(C(=O)O)c(C)n(Cc3cccc(OC)c3)c2C)cc1OC,3%[46.1 µM],2%,0%,/,/,/,15%[46.1 µM],-0.5%
CCN(CC)C(=O)c1sc(NC(=O)C(Sc2ccccc2)c2ccccc2)c(C(=O)OC(C)C)c1C (stereo not drawn),?,0%,4%,10%,-3%,-10%,?,-0.8%
CCc1ccc(C2C(C#N)=C(N)C(C#N)(C#N)C3=CCC(C(C)(C)C)CC32)cc1 (stereo not drawn),?,?,-9%,17%,-26%,22%,-13%,-13%
O=C(Cc1cccs1)NCCS(=O)(=O)N1CCN(c2cccc(Cl)c2)CC1,1%,-21%,/,/,5%,5%,?,/
CCCCCCNc1nc(OC)nc(N2CC3CC(C2)c2cccc(=O)n2C3)n1 (stereo not drawn),3%[46.1 µM],1%,/,/,0%,4%,5%[46.1 µM],/
